Bfl-1 A1 inh = caspase 3/7 activation in MEF A1-2A-BIM cells, primary screen, A1 inhibitor project, cell-based, luminescence, HTS | actives 0.066% (n = 330,000) | caspase activation, % (concentration not given with the values) | Caspase-Glo 3/7 luminescence, 3 h; percent of clofoctol response, vehicle zero | AID 2462, 2010;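 active = over half of replicate activation scores above 10%, or exactly half above 10 with the replicate mean above 10; inconclusive = replicate mean below 10 yet half the replicates above 10; inactive = over half of replicates below 10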;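 note: wells of about 30 µL received 50 nL stock; many hits fall short of the cut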
AF4-AF9 inh = inhibitors of AF4 peptide binding to AF9, primary screen, biochemical, AlphaScreen, biotin-AF4 peptide, FLAG-AF9, single point; Protein AF-9 (Homo sapiens), P42568; inhibition, % at 10 µM; actives 0.47% (n = 350,000);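 active = every replicate reaching a set inhibition limit, whatever the replicate mean, cut at about 25% in these data; inconclusive = mean inhibition reaches that limit but some replicates miss it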;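 note: 0% = plate neutral control median and 100% = total signal loss; the record names both 10 and 1 µM as test concentration; the first replicate is given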
Target sequence (P42568 whole entry, looked up): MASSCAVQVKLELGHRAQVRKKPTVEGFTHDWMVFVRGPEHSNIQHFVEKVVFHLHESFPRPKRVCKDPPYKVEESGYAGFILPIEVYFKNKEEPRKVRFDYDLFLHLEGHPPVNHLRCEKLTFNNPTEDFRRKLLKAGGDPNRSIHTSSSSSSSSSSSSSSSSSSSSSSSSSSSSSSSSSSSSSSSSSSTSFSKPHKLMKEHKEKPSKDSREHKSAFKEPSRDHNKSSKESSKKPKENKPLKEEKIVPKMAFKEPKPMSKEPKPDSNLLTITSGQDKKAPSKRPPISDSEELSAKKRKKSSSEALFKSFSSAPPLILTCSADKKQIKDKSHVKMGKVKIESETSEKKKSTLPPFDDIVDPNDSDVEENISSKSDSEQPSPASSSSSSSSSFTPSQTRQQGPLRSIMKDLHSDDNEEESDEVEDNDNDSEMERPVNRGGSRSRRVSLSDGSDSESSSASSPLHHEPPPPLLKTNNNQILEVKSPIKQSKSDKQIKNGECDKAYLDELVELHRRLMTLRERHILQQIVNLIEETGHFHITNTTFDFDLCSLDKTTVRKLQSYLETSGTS
E coli growth = E. coli growth inhibition, primary screen, OD600. Escherichia coli growth, 23 h; stronger effect = lower value. OD600 absorbance (test concentration not listed). AID 1053175, 2014. actives 0.21% (n = 330,000);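 active = OD600 absorbance below the run mean of sample wells minus 3.6 SD, in any replicate, cut at about 0.56 in these data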;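 note: stock transfer was 300 nL into about 60 µL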
FGF22 binding = binders of human FGF22 protein, primary screen, FGF22 synaptogenesis inhibitor project, biophysical, thermal shift, single point | Fibroblast growth factor 22 (Homo sapiens), Q9HCT0 | recombinant FGF22 thermal shift, SYPRO orange fluorescence; percent of sucrose octasulfate shift, DMSO zero | calls only at 9.99 µM | actives 1.5% (n = 340,000);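 active = melting point raised past a set limit in the mean and every replicate; inconclusive = no clear call; three in four hits are not shown here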
Target sequence (Q9HCT0 whole entry, looked up): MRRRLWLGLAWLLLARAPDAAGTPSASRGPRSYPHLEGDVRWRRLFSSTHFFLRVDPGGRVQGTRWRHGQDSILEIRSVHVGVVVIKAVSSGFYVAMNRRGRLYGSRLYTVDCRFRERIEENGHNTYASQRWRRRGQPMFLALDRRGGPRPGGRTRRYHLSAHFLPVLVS
UCH37 DUB inh = inhibitors of human UCH37 deubiquitinase, primary screen, biochemical, Ub-AMC cleavage, fluorescence. Ubiquitin carboxyl-terminal hydrolase isozyme L5 (Homo sapiens), Q9Y5K5. inhibition, % (concentration not given with the values). purified proteasome/UCH37. actives 0.33% (n = 330,000);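 active = mean of two replicates above 20%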;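 note: 0% = compound-free wells with enzyme and 100% = wells lacking proteasome; stock transfer was 100 nL into about 20 µL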
Target sequence (Q9Y5K5 whole entry, looked up): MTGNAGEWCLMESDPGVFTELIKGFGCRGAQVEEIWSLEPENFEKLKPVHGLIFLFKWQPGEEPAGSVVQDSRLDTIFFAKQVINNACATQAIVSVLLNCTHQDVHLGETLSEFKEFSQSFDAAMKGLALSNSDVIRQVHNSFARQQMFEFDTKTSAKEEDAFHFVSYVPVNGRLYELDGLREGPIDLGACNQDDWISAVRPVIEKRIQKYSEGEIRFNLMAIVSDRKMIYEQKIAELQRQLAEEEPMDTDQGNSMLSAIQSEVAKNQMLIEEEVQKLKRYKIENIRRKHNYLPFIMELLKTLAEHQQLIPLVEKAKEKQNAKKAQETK
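system = Proteasome-associated human UCH37 deubiquitinase | amount = 0.15 nM proteasome as dispensed | medium = pH 7.4 Tris-HCl (50 mM) with ovalbumin, ATP-MgCl2, DTT | incubation = 30 min preincubation with enzyme, 25 min cleavage at room temperature | detection = AMC fluorescence 355/460 nm | read-out basis = percent inhibition | controls = no-proteasome and no-compound wells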
Beta apoptosis = inhibitors of cytokine-induced beta cell apoptosis, primary screen, luminescence. INS-1E cytokine-induced death, ATP luminescence, 48 h; percent of positive-control rescue, neutral wells zero. protection from apoptosis, % (test concentration not listed). actives 0.8% (n = 300,000). AID 435005, 2010;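 active = all replicates at 75% or more, or half of them and the mean; inconclusive = half reach 75% but not the mean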;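 note: 0% = cytokine-treated negative control wells and 100% = positive control rescue; higher means more ATP so stronger rescue from cytokine killing; wells of about 40 µL received 100 nL stock; the first replicate is given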
T cruzi inh = inhibitors of intracellular T. cruzi growth, primary screen, luminescence, NIH3T3 host cells; T. cruzi beta-gal in NIH3T3, 90 h; inhibition, % (concentration not given with the values); actives 1.4% (n = 300,000);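 active = mean inhibition across valid replicates above about 55%, limit read from the data; inconclusive = mean below that limit but half or more replicates reach it; inactive = mean below it, under half of replicates reach it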;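 note: signal also drops with host cell toxicity which is not excluded here; 0% = plate median of DMSO wells and 100% = zero luminescence signal; higher percent means less beta-gal luminescence so fewer parasites; stock transfer was 50 nL into about 50 µL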
rRNA inh HTS = reduced GFP signal of wild-type E. coli, primary screen, bacterial rRNA inhibitor project, GFP/RFP fluorescence, OD600, single point | GFP signal change (wild-type ribosome), % (no concentration beside the values) | AID 720706, 2013 | actives 1.6% (n = 350,000) | E. coli WT GFP vs humanized-ribosome RFP mutants, 24 h; stronger effect = lower value; DMSO median 0, no signal -100;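 active = significant combined selectivity score with lowered wild-type GFP, culture density cut under 30%, mutant RFP and density less affected; inactive = any of these conditions unmet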; note: one replicate is shown; some compounds called inactive have numbers as strong as hits
rRNA inh HTS OD600 = also measured in rRNA inh HTS; calls as there; OD600 change, %; measured here: OD600 growth;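 optical density of the mix in the first replicate; 0 = DMSO median and -100 = no signal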
rRNA inh HTS RFP = further read-out of rRNA inh HTS, marked with its call; RFP signal change, %; measured here: RFP humanized mutant strains;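 first replicate; 0 = DMSO median and -100 = no signal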
* marks the source's active call; other numbers are inactive results; i = inactive; ? = inconclusive; . = not tested or not shown; & = joins results of further samples. A portion of the library. The share of hits here may be higher or lower than overall.

SMILES	Bfl-1 A1 inh	AF4-AF9 inh	E coli growth	FGF22 binding	UCH37 DUB inh	Beta apoptosis	T cruzi inh	rRNA inh HTS	rRNA inh HTS OD600	rRNA inh HTS RFP
Cc1cc(OC(=O)c2cccs2)c2c3c(c(=O)oc2c1)CCCC3	1.1	-2.1	0.66	i	1.9	21	-5	-12	-17	-3.5
C[C@]12CCC3C(CC[C@H]4C[C@@H](O)CC[C@]34C)C1C[C@@H](O)[C@@H]2O (stereo partly specified)	.	-0.4	0.68	i	-0.4	.	.	1	-7	4.3
O=C(O)CCn1cc(C=C2C(=O)NC(=O)NC2=O)c(-c2ccc(Br)cc2)n1	-1.0	.	0.67	.	4.8	0	-3	.	.	.
Cc1ccnc(NS(=O)(=O)c2ccc(N=Cc3c(O)n(C)c(=O)n(C)c3=O)cc2)n1	-0.1	-2.8	0.62	i	9.1	-5	0	17	8	3.4
CCCCNC(=O)Nc1ccc(C(O)(C(=O)OC)C(F)(F)F)cc1 (stereo unspecified)	0.5	.	0.66	.	1.2	-2	-1	.	.	.
CN(C)CCNC(=O)c1cccn(Cc2cc(C(F)(F)F)cc(C(F)(F)F)c2)c1=O	-0.2	-1.0	0.69	i	-9.0	-5	18	11	8	0.9
COc1ccc(OC)c(N2C(=O)NC(=O)C(CCc3ccncc3)(CCc3ccncc3)C2=O)c1	-0.2	-19	0.73	i	6.2	-2	-4	8	0	-5.7
COc1ccccc1N1C(=O)CC(=O)NC1=O	-0.2	-4.5	0.69	i	-0.9	-9	-10	15	12	-1.6
N/C(=N/[N+](=O)[O-])N1CCN(C(=O)c2ccc(Cl)cc2)CC1	-0.1	-2.1	.	i	.	-4	-19	4	9	3.0
COc1cc2c(cc1OC)C(C(=O)NC(C)C)C1CCCCN1C2=O (stereo unspecified)	0.6	-32	0.73	i	1.2	-2	-2	5	6	-1.4
CCCCOC(=O)C1=C(N)OC2=C(C(=O)CCC2)[C@]12C(=O)Nc1ccccc12	-1.5	.	0.72	.	4.2	1	-12	.	.	.
N#CCCn1cc(C=C2C(=O)NC(=O)NC2=O)c(-c2ccccc2)n1	0.1	1.1	0.75	i	2.2	0	-15	15	11	0.3
CN1CCCC(C(=O)c2ccccc2)C1 (stereo unspecified)	0.1	.	0.69	.	2.8	6	-5	.	.	.
O=c1[nH]c(=O)n(-c2ccc(F)cc2)c(O)c1C=NCCN1CCCCC1	-0.6	.	0.63	i	-0.2	-4	-13	5	-7	-3.3
CN1C(=O)CN=C(c2ccccc2Cl)c2cc(Br)ccc21	0.3	-3.3	0.67	i	1.6	9	-6	-2	-5	2.6
O=C(O)C(Br)CBr (stereo unspecified)	0.2	.	0.67	i	-0.1	-2	.	-2	-2	-2.1
CC(C)CNC(=O)c1c(N)n(Cc2ccco2)c2nc3ccccc3nc12	0.8	.	0.75	.	-220	-10	18	.	.	.
O=[N+]([O-])c1ccccc1CN1CC=C(c2ccc(F)cc2)CC1	-1.3	12	0.66	.	3.6	-10	9	-8	-12	2.3
CCCCNC(=O)CN1C(=O)CN=C(c2ccccc2)c2ccccc21	-0.4	1.7	0.67	i	3.1	-2	-13	13	10	-2.1
O=C(O)[C@H]1NC[C@H]2C[C@H]21	0.8	-1.8	0.67	i	0.5	2	-3	10	5	3.1
O=C1NC(=O)C(CCc2ccncc2)(CCc2ccncc2)C(=O)N1CCc1ccc(F)cc1	0.5	-0.1	0.72	i	2.4	-4	14	-24	-23	-0.2
O=C(Nc1ccc(Cl)cc1)Nc1nccs1	-2.8	.	0.58	.	1.9	5	-55	.	.	.
COc1ccc(C2SCC(=O)Nc3c2c(=O)[nH]n3C2CCCCCC2)cc1OC (stereo unspecified)	-0.4	.	0.71	.	-0.5	-2	-2	.	.	.
CCOc1cccc(N2C(=O)CC(=O)NC2=O)c1	-0.5	.	0.75	.	-0.7	0	-11	.	.	.
C=CC(=O)NCNC(=O)C=C	0.2	.	.	i	.	-5	.	10	4	7.4
FC(F)(F)c1ccc(CN2CCNCC2)cc1	-0.1	2.4	0.69	i	5.5	.	0	26	13	1.5
Nc1ccc(C(=O)N/N=C2/CN3CCC2CC3)cc1	0.3	4.0	.	i	.	-5	-17	10	3	-8.5
COc1ccccc1N1C(=O)NC(=O)/C(=C/c2ccc([N+](=O)[O-])s2)C1=O	-0.7	5.3	0.5	i	9.2	8	22	-13	-15	9.1
CCN(CC)CCN=Cc1c(O)n(Cc2ccccc2)c(=O)[nH]c1=O	?	?	0.66&0.69	i	2.9&1.5	-13&4	-19&-2	9	10	-1.0
CCCNC(=O)N1[C@H]2CC[C@@H]1C(C(=O)OC)=C(c1c(C)noc1C)C2	3.1	.	.	i	2.7	8	.	21	17	5.0
C=CCN1C(=O)NC(=O)C(CCc2ccncc2)(CCc2ccncc2)C1=O	0.4	-1.5	0.69	.	3.3	.	-17	9	9	-2.1
COc1ccc(S(=O)(=O)N2CCOCC2)cc1NC(=O)COC(=O)Cc1ccccc1	-1.3	-1.8	0.63	i	1.7	-3	.	3	10	0.3
CCN1CCN(C(=O)Cc2ccccc2OC)CC1	0.1	1.1	0.72	i	0.8	1	-4	-9	0	-3.2
COc1ccc(CN2CCN(Cc3ccccc3)CC2)c(OC)c1	0.1	.	0.65	.	5.6	-6	-12	.	.	.
CCOC(=O)c1ccc(NC(=O)N2C[C@@H]3C[C@@H](C2)c2cccc(=O)n2C3)cc1	-0.4	-2.0	0.71	i	3.3	-5	-2	12	11	8.2
CC1CCC2C(C)C(=O)OC3OC4(C)CCC1C32OO4 (stereo unspecified)	0.6	4.0	0.43*	i	6.4	15	3	-4	-26	30
COc1ccc(N/N=C/c2c(O)n(-c3cccc(C)c3)c(=O)[nH]c2=O)cc1	0.1	-0.9	0.62	i	2.8	-10	-5	3	8	2.3
C=CCN1CC[C@]23c4c5ccc(O)c4O[C@H]2/C(=N/NC(=O)c2ccccc2)CC[C@@]3(O)[C@H]1C5	0.7	2.6	.	i	.	-6	10	-8	1	0.3
Cc1cnc(-n2c(=S)[nH]c3ccccc3c2=O)s1	-0.2	-7.9	.	i	.	-8	.	.	.	.
CC1(C)N2CC3([N+](=O)[O-])CN1CC([N+](=O)[O-])(C2)C3	-1.1	-0.4	0.66	i	1.8	-8	-4	16	9	-0.8

Exported with values under each structure: part of the list above
Fields – Bfl-1 A1 inh | AF4-AF9 inh | E coli growth | FGF22 binding | UCH37 DUB inh | Beta apoptosis | T cruzi inh | rRNA inh HTS | rRNA inh HTS OD600 | rRNA inh HTS RFP
- C=CCN1C(=O)NC(=O)C(CCc2ccncc2)(CCc2ccncc2)C1=O
  0.4 | -1.5 | 0.69 | . | 3.3 | . | -17 | 9 | 9 | -2.1
- COc1ccc(S(=O)(=O)N2CCOCC2)cc1NC(=O)COC(=O)Cc1ccccc1
  -1.3 | -1.8 | 0.63 | i | 1.7 | -3 | . | 3 | 10 | 0.3
- CCN1CCN(C(=O)Cc2ccccc2OC)CC1
  0.1 | 1.1 | 0.72 | i | 0.8 | 1 | -4 | -9 | 0 | -3.2
- COc1ccc(CN2CCN(Cc3ccccc3)CC2)c(OC)c1
  0.1 | . | 0.65 | . | 5.6 | -6 | -12 | . | . | .
- CCOC(=O)c1ccc(NC(=O)N2C[C@@H]3C[C@@H](C2)c2cccc(=O)n2C3)cc1
  -0.4 | -2.0 | 0.71 | i | 3.3 | -5 | -2 | 12 | 11 | 8.2
- CC1CCC2C(C)C(=O)OC3OC4(C)CCC1C32OO4 (stereo unspecified)
  0.6 | 4.0 | 0.43* | i | 6.4 | 15 | 3 | -4 | -26 | 30
- COc1ccc(N/N=C/c2c(O)n(-c3cccc(C)c3)c(=O)[nH]c2=O)cc1
  0.1 | -0.9 | 0.62 | i | 2.8 | -10 | -5 | 3 | 8 | 2.3
- C=CCN1CC[C@]23c4c5ccc(O)c4O[C@H]2/C(=N/NC(=O)c2ccccc2)CC[C@@]3(O)[C@H]1C5
  0.7 | 2.6 | . | i | . | -6 | 10 | -8 | 1 | 0.3
- Cc1cnc(-n2c(=S)[nH]c3ccccc3c2=O)s1
  -0.2 | -7.9 | . | i | . | -8 | . | . | . | .
- CC1(C)N2CC3([N+](=O)[O-])CN1CC([N+](=O)[O-])(C2)C3
  -1.1 | -0.4 | 0.66 | i | 1.8 | -8 | -4 | 16 | 9 | -0.8

(more compounds)
SMILES	Bfl-1 A1 inh	AF4-AF9 inh	E coli growth	FGF22 binding	UCH37 DUB inh	Beta apoptosis	T cruzi inh	rRNA inh HTS	rRNA inh HTS OD600	rRNA inh HTS RFP
Cn1c(O)c(C=NC2CC(C)(C)NC(C)(C)C2)c(=O)n(C)c1=O	0.2	-37	0.64	i	1.7	-12	-1	12	6	0.5
C=CCn1c(O)c(C(C)=Nc2cc(OC)ccc2OC)c(=O)[nH]c1=O	0.1	.	0.72	.	4.5	13	6	.	.	.
CCC1=Nc2cc(C(=O)N3CCC4(CC3)OCCO4)ccc2Sc2ccccc21	0.6	5.8	0.65	i	0.0	-7	8	-7	-26	-2.1
CN(C(=O)CNC(=O)OCc1ccccc1)c1ccc(Br)cc1C(=O)c1ccccc1Cl	2.5	.	0.74	.	-2.0	32	21	.	.	.
CN1CCc2nc3sc(C(=O)NC4CC4)c(N)c3cc2C1	-0.6	0.1	0.68	i	-0.4	0	27	8	6	2.4
COc1cc(O)c(C(=O)O)c(-c2cc(O)c(O)cc2C)c1	0.1	-3.6	0.63	i	-0.1	.	-14	.	.	.
Cn1c(O)c(C(=Nc2ccccc2)SCc2ccccc2Cl)c(=O)n(C)c1=O	-0.3	-0.8	0.68	i	4.0	0	-18	.	.	.
COC1=CC=C2[C@H]3Cc4ccc(OC)c5c4[C@@]2(CCN3C)C1O5 (stereo partly specified)	.	.	0.74	i	0.5	.	.	-8	0	-2.4
CC(=NCc1cccnc1)c1c(O)n(C2CCCCC2)c(=O)[nH]c1=O	-0.7	.	0.65	.	1.5	.	-14	.	.	.
C=Cn1ccnc1P(=S)(c1ccccc1)c1nccn1C=C	-1.0	-1.1	0.63	i	-1.1	-6	-23	1	-1	1.3
CC(C)(C)C(=O)c1cn(CC(=O)NCc2ccco2)c2ccccc12	-1.0	3.1	0.67	i	4.0	.	5	-5	-9	-1.4

Source: PubChem
